D2 PAM – Beta-Arrestin HTS for Positive Allosteric Modulators of the Human D2 Dopamine Receptor: Potentiators. DiscoveRx D2 beta-arrestin cells, luminescence, 90 min; 100% = 57 uM dopamine signal. potentiation, % (no concentration beside the values). AID 624464, 2012. 360,000 compounds, 0.23% hits; active = potentiation of 50% or more; inconclusive = 30% to 50%; inactive = 30% or less;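 further: compound concentration not given in the record; tested on top of an EC20 dose of dopamine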
Target sequence (P14416 whole entry, looked up): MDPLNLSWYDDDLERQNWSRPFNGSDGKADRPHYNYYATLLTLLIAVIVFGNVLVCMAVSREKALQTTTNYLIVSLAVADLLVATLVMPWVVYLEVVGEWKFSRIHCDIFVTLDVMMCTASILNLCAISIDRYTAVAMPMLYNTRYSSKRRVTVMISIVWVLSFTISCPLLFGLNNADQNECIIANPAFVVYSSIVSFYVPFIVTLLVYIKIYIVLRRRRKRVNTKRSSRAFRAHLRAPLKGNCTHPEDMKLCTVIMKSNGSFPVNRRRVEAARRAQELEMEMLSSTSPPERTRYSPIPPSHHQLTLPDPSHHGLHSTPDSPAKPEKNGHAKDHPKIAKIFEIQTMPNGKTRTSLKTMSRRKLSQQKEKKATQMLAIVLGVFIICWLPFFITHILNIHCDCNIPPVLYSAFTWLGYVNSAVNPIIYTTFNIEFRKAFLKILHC
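PathHunter beta-arrestin assay in DiscoveRx D2 cells. Compounds were added with an EC20 of dopamine (50 nM final) for 90 min at 37 deg C. Luminescence was read 1 h after detection reagent, with 57 uM dopamine as the EC100 control.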
Six1-Eya2 blk – qHTS Assay for Inhibitors of the Six1/Eya2 Interaction. 360,000 compounds, 0.56% hits. AlphaScreen GST-Six1/His-Eya2 binding, biochemical; active compounds read low; control for the full effect not named in the record. activity change, % (test concentration not listed). Homeobox protein SIX1 (Homo sapiens) + Protein phosphatase EYA2 (Homo sapiens), …. AID 651725, 2012; in the data active = activity change below about -65%; inconclusive = about -30% to -65%; inactive = above about -30%; further: on the % scale 0 is the no-effect control and ±100 the full control effect
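GST-Six1 + His-Eya2 (5X stock: 250/500 nM); Tris pH 8.0, 300 mM NaCl, 0.05% BSA, 0.02% Tween 20; GSH donor/Ni acceptor beads; 1 h 37 °C dark; AlphaScreen readout.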
TRPV1 potentiator – HTS Assay for Compounds that Act as Potentiators of the Vanilloid Receptor 1; Transient receptor potential cation channel subfamily V member 1 (Homo sapiens), Q8NER1; potentiation, % at 8.33 µM; AID 540277, 2011; 320,000 compounds, 0.02% hits; TRPV1-expressing cells, Fluo-8 calcium influx, capsaicin EC20 potentiation; host cell line not named in the record; control for the full effect not named in the record; active means potentiation above 80%; inconclusive means 30% to 80%; inactive means below 30%; further: 0% is about no effect
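TRPV1-expressing cells were cultured overnight at 35.5C and loaded with Fluo-8 calcium dye for 40 to 90 min at room temperature. After a 10 s baseline, compound was added and calcium influx was read kinetically for 3 min (ex 480/em 520 nm).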
TRPML1 blocker – qHTS for Inhibitors of the Human Mucolipin Transient Receptor Potential 1 (TRPML1) | 390,000 compounds, 0.02% hits | AID 624415, 2012 | activity change, negative = inhibition, % (no concentration beside the values) | TRPML1-inducible cells, Ca2+ dye fluorescence, FDSS; active compounds read low; inhibition of EC80 agonist-evoked calcium signal; in the data active means activity change below about -50%; inconclusive means about -30% to -50%; inactive means above about -30%;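 further: stimulus is agonist 54-4 at its EC80 concentration; on the % scale 0 is the no-effect control and ±100 the full control effect; compound concentration not given in the record; the text of the record puts the active cut at -80%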
Target sequence (Q9GZU1 whole entry, looked up): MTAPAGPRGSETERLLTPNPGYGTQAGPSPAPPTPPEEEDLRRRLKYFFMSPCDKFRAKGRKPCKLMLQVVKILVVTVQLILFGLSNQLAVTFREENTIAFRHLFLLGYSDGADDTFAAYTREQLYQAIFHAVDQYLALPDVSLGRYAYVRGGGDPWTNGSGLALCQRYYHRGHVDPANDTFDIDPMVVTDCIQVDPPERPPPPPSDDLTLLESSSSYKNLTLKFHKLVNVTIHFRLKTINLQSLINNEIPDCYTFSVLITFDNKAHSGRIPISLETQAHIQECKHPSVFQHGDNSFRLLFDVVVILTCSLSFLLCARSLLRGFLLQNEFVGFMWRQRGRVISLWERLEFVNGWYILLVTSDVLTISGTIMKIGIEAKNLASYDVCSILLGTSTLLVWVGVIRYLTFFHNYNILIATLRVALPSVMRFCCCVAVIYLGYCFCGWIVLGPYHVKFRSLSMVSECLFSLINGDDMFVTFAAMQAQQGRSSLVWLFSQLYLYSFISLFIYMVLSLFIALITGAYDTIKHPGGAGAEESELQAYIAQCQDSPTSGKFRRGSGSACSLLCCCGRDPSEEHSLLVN
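TRPML1-DL cells, Tet-induced overnight (~16 h, 37 °C) at 1,500 cells/well, were loaded with Ca8 no-wash dye plus quencher for 45-90 min at room temperature. Compounds were pinned during FDSS kinetic reading; agonist 54-4 at EC80 (4 uM final) then added.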
CtBP-E1A blk – qHTS Assay for Inhibitors of the CtBP/E1A Interaction. activity change, % (test concentration not listed). AlphaScreen GST-E1A/His-CtBP binding, 1536-well; active compounds read low; control for the full effect not named in the record. CtBP / adenovirus E1A interaction (AlphaScreen). 340,000 compounds, 0.49% hits; in the data active means activity change below about -65%; inconclusive means about -30% to -65%; inactive means above about -30%; further: on the % scale 0 is the no-effect control and ±100 the full control effect
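In 5 uL wells, 23 nL compound meets equimolar GST-E1A and His-CtBP (5X stock 125 nM each) for 2 h, 37 °C. Beads (5X, 50 ug/mL) then 1 h, 37 °C, dark.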
TRPML1 agonist – qHTS for Agonists of the Human Mucolipin Transient Receptor Potential 1 (TRPML1) | Mucolipin-1 (Homo sapiens), Q9GZU1 | TRPML1-expressing cells, Ca2+ dye fluorescence, FDSS; host cell line not named in the record; reference of the full effect not given here | activation, % (test concentration not listed) | 410,000 compounds, 0.12% hits | AID 624414, 2012; in the data active = activation above about 50%; inconclusive = about 30% to 50%; inactive = below about 30%; further: 0% is about no effect; the text of the record puts the active cut at 80%
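Calcium fluorescence on an FDSS kinetic reader gave the read-out. Tet-induced TRPML1-DL cells were plated overnight, dye-loaded (Ca8 with quencher, 45-90 min, room temperature, dark), then read 110 s after compound addition, and again 110 s after 4uM final 54-4 (EC80).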
* hit, by the source's call; ? = inconclusive; / = not tested or not shown; & = joins results of further samples.

[1] Cc1ccc(OCC(=O)Nc2cc(NC(=O)COc3ccc(C)cc3)cc(C(=O)O)c2)cc1
[2] CC(C)c1cc(O)c(-c2ccccc2)c(=O)n1-c1ccc(Cl)cc1
[3] Cc1cccc2cc(CN(CC3CCCO3)C(=S)NCc3ccco3)c(=O)[nH]c12 (centres undefined)
[4] COc1ccc(C)cc1NC(=O)CN1C(=O)CSc2ccc(S(=O)(=O)N3CCCC3)cc21
[5] Nn1c(-c2ccco2)n[nH]c1=S
[6] C=C(C)CNC(=S)N=Nc1c(O)[nH]c2ccc([N+](=O)[O-])cc12

entry no.	1	2	3	4	5	6
D2 PAM	3	0	-7	-5	-9	-8
Six1-Eya2 blk	-6	10	0	-1	-1	?
TRPV1 potentiator	?	-5	26	-3	11	4
TRPML1 blocker	3	48	16	-4&-12	7	-10
CtBP-E1A blk	0	0	7	-5	-22	-12
TRPML1 agonist	0.4	1.9	1.2	2.5&2.0	0.1	1.5

Continued; the last 3 above are carried over.
[4] COc1ccc(C)cc1NC(=O)CN1C(=O)CSc2ccc(S(=O)(=O)N3CCCC3)cc21
[5] Nn1c(-c2ccco2)n[nH]c1=S
[6] C=C(C)CNC(=S)N=Nc1c(O)[nH]c2ccc([N+](=O)[O-])cc12
[7] CC(=NNC(=S)N1CCCCCC1)c1ccccn1
[8] Cc1ccccc1NC(=O)C1CCCN(C(=O)NCc2ccccc2)C1 (centres undefined)
[9] CC1C(=O)N2CCCc3cc(S(=O)(=O)NCc4ccc(Cl)cc4)cc1c32 (centres undefined)
[10] CCN(Cc1cn2cccnc2n1)C1CCCCC1
[11] COc1ccc(NC(=O)c2cccc(OC(F)F)c2)cc1Cl
[12] Cc1cccc(NC(=O)c2cccc3c2-c2ccccc2C3=O)n1

entry no.	4	5	6	7	8	9	10	11	12
D2 PAM	-5	-9	-8	-41	-3	1	0	-24	-5
Six1-Eya2 blk	-1	-1	?	-89*	-4	3	0	6	4
TRPV1 potentiator	-3	11	4	/	-11	-2	-3	10	-14
TRPML1 blocker	-4&-12	7	-10	-7	10	-14	-24	9	15
CtBP-E1A blk	-5	-22	-12	-90*	4	0	7	9	-8
TRPML1 agonist	2.5&2.0	0.1	1.5	0.4	-0.6	-0.8	-0.5	-0.5	0.1

[13] COC1=CCC2([N+](=O)[O-])CN(CCO)CC1([N+](=O)[O-])C2 (centres undefined)
[14] Cn1c(CN2CCCCC2)nc2cc(NC(=O)c3ccccc3Cl)ccc21
[15] COC(=O)[C@@H]1C[C@@H]2CC[C@@H](O)C[C@@H]2N1Cc1ccccc1OS(=O)(=O)c1ccc(C)cc1
[16] O=C(O)C1CCCN1S(=O)(=O)c1ccc(Br)cc1 (centres undefined)
[17] Cc1nn(C)c(C)c1C1C(C#N)=C(N)OC2=C1C(=O)CCC2 (centres undefined)
[18] COc1ccc(/C=C2\CCn3c2nc2cc(C(=O)O)ccc2c3=O)cc1OC

entry no.	13	14	15	16	17	18
D2 PAM	11	-5	-3	-13	-1	-4
Six1-Eya2 blk	6	-2	-6	2	10	-21
TRPV1 potentiator	11	4	-11	-1	7	-14
TRPML1 blocker	-8	3&2	15	3	-8	-1
CtBP-E1A blk	-5	-1	0	/	-6	-7
TRPML1 agonist	0.5	-0.3&0.1	0.6	0.0	0.4	-0.3

[19] COc1ccc(/C=C(/NC(=O)c2ccccc2)C(=O)NCc2ccco2)cc1
[20] CC(C)OC(=O)Cn1c(-c2ccccc2)c(-c2ccccc2)nnc1=O
[21] CSc1ccc(C#N)cc1NC(=O)c1ccc(Cl)nc1
[22] Oc1cccc(/C=N/n2c(C3CCCCC3)n[nH]c2=S)c1
[23] COc1ccc(Cc2noc(CN3CCC(c4ccncc4)CC3)n2)cc1OC
[24] Cn1c(=O)c2cc(NC(=O)NCCc3ccccc3)ccc2n1Cc1ccccc1

entry no.	19	20	21	22	23	24
D2 PAM	-5	-3	7	-4	-11	5
Six1-Eya2 blk	1	1	-6	-8	2	-12
TRPV1 potentiator	-3	-28	18	4	-10	/
TRPML1 blocker	-3	0	0	-14	-5	/
CtBP-E1A blk	3	10	2	-6	/	3
TRPML1 agonist	0.0	0.6	0.7	-0.3	0.1	-0.9

[25] CCCc1nc(-c2cc3ccc(C)cc3[nH]c2=O)no1
[26] O=C(NC(=S)N(CCO)Cc1ccccc1)c1cc(Br)ccc1Cl
[27] CCN(CC)C(=O)Oc1ccc(OC(=O)N(CC)CC)cc1
[28] O=C(CCSCc1ccccc1Cl)NC1CCCC1
[29] CCOc1ccc(C(=O)Nc2nnc(NC(=S)Nc3ccccc3)s2)cc1
[30] Cc1ccc(NC(=O)Cn2cnc3sc(C(=O)NCc4ccco4)c(C)c3c2=O)cc1Cl

entry no.	25	26	27	28	29	30
D2 PAM	-14	-38	2	-13	-3	-9
Six1-Eya2 blk	-8	25	-2	-2	-10	22
TRPV1 potentiator	-4	-2	13	-23	3	-9
TRPML1 blocker	33	0	-8	-16	5	-10
CtBP-E1A blk	-9	-24	6	-7	-5	29
TRPML1 agonist	-0.9	1.7	0.7	0.5	-0.1	0.3

[31] O=C(CN1CCC(n2nnc3cc(F)ccc32)CC1)NCCc1ccccc1
[32] CCOc1ccccc1NC(=O)COC(=O)c1ccccc1SCC(=O)N1CCCC1
[33] O=C(CCCCC(=O)Nc1ccccc1Cl)Nc1ccccc1Cl
[34] CCN(CC)C(=O)c1cc2c(=O)n3cccc(C)c3nc2s1
[35] O=C(NN1C(=O)C2C3C=CC(O3)C2C1=O)c1ccccc1 (centres undefined)
[36] N#Cc1nc(-c2ccccc2F)oc1NCCc1ccccc1

entry no.	31	32	33	34	35	36
D2 PAM	-13	8	-27	-1	-8	-7
Six1-Eya2 blk	6	5	-18	0	5	-20
TRPV1 potentiator	-2	11	16	0	0	-17
TRPML1 blocker	-3	2	-9	-2	-14	-1
CtBP-E1A blk	9	-10	/	5	-8	-23
TRPML1 agonist	-0.3	2.5	0.8	-1.3	0.2	0.0

[37] O=C(NCc1ccccn1)[C@@H]1CCCN1C(=O)[C@@H]1CCCN1C(=O)c1cccc(Cl)c1
[38] COC(=O)Nc1ccc(S(=O)(=O)N2CCCC(C(=O)NCC3CCCO3)C2)cc1 (centres undefined)
[39] C1=CC2CC1CC2CN1CCN(Cc2ccccc2)CC1 (centres undefined)
[40] Cc1c(C(=O)NCc2ccccc2CN2CCCC2)oc2ccc(F)cc12
[41] Cc1ccc(C(=O)O)cc1N1C(=O)c2cccc3c([N+](=O)[O-])ccc(c23)C1=O
[42] Cc1ccc(S(=O)(=O)N(C)C)cc1NC(=S)NCc1ccco1

entry no.	37	38	39	40	41	42
D2 PAM	/	8	-48	-3	21	-43
Six1-Eya2 blk	-1	0	-1	-4	?	-20
TRPV1 potentiator	/	/	8	-3	-4	-3
TRPML1 blocker	/	6	20	9	1	36
CtBP-E1A blk	1	/	-5	0	-8	-3
TRPML1 agonist	-0.7	-0.7	1.0	0.8	3.2	-1.1

[43] CCCCCCCCCC(=O)N[C@H](CN1CCOCC1)[C@H](O)c1ccccc1
[44] Cc1ccc(/C=N\NC(=O)C2CN(S(=O)(=O)c3ccccc3)CCN2S(=O)(=O)c2ccccc2)cc1 (centres undefined)
[45] COc1cccc(/C=N\NC(=O)Cn2nnc3ccccc32)c1O
[46] Cc1ccc(C(OCC(O)CNC(CO)C(O)c2ccc([N+](=O)[O-])cc2)c2ccccc2)cc1 (centres undefined)
[47] CN(C)CCOc1cccc(Br)c1
[48] CN(C(=O)c1cnccn1)c1c(N)n(Cc2ccccc2)c(=O)[nH]c1=O

entry no.	43	44	45	46	47	48
D2 PAM	-18	-4	-5	-6	-15	-25
Six1-Eya2 blk	5	-12	-93*	-3	0	0
TRPV1 potentiator	/	-1	-2	-2	-2	-3
TRPML1 blocker	33	26	-13	18	-10	-13
CtBP-E1A blk	-12	-11	-93*	-3	0	12
TRPML1 agonist	0.9	-0.2	-0.8	0.2	-0.2	-0.6

[49] Fc1ccc(CSc2nncn2NC/C=C/c2ccccc2)cc1
[50] CC(C)[C@H](NC(=O)OC(C)(C)C)C(=O)N/N=C/c1cccc2nccnc12
[51] O=C(COC(=O)c1ccc(S(=O)(=O)Nc2ccccc2)cc1)NC1CCCC1
[52] Cc1cc(=S)[nH]c2c(C)cccc12
[53] CCC(C(=O)NCCc1c[nH]c2cc(OC)ccc12)c1ccccc1 (centres undefined)
[54] COc1ccc(-c2noc3c2-c2nc(C(C)C)sc2CC3)cc1

entry no.	49	50	51	52	53	54
D2 PAM	-6	-15	-1	1	-2	2
Six1-Eya2 blk	12	-11	1	-5	-7	3
TRPV1 potentiator	3	?	0	2	-30	/
TRPML1 blocker	1	-8	-20	-16	-15	-22
CtBP-E1A blk	-6	-23	-16	-4	-9	7
TRPML1 agonist	0.5	-0.3	0.8	3.1	0.7	4.2

[55] N#Cc1cnn(-c2cccc(Cl)c2)c1N
[56] CCOc1ccc(N(CC(=O)NC2CCCCC2)C(=O)CNC(=O)c2ccco2)cc1
[57] Cc1cc(C)c2nc(N(CCN(C)C)C(=O)/C=C/c3cccs3)sc2c1
[58] O=C(O)c1ccc(N/N=C/c2cccc3cccnc23)cc1
[59] CCOC(=O)C1=C(C(F)(F)F)Nc2ncnn2C1c1cc(OC)ccc1OC (centres undefined)
[60] CCOC(=O)/C=C1\CN(Cc2cc(OC)c(OC)c(OC)c2)S(=O)(=O)c2ccccc21
[61] Cc1ccc2c(C)c(C(=O)N3CCCC(C(N)=O)C3)oc2c1C (centres undefined)

entry no.	55	56	57	58	59	60	61
D2 PAM	-3	-6	-6	-7	6	-4	-10
Six1-Eya2 blk	8	6	13	6	6	-2	0
TRPV1 potentiator	-11	/	-2	2	8	-2	-12
TRPML1 blocker	8	-11	29	/	-17	0	-13
CtBP-E1A blk	6	13	/	14	8	-1	-10
TRPML1 agonist	1.9	0.1	2.6	/	0.8	0.1&-0.6	1.3
